Rango complex inh: prevents formation of the Rango-importin beta complex; 0.031% of 340,000 active; Potency, µM (doses to about 92.2 µM), for the others: at the highest dose inhibition of complex formation; Rango CFP/YFP FRET sensor + importin beta, 45 min; Q14974; AID 540263; active = rising FRET ratio curve, often small or poorly fitted; inconclusive = mostly compound fluorescence or quenching in the first reads; inactive = flat curves in all reads;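 further: potency means the concentration at half of the fitted maximal effect; 0% = DMSO wells and 100% = buffer wells lacking importin beta; nearly all actives have a fitted effect of over 15% in size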
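FRET biosensor (snurportin 1 IBB flanked by EYFP and cerulean), 50 nM, with compound 5 min, then 0.125 microM importin beta in PBS, 1 mM DTT, 0.02% Tween-20, 0.1% BSA. CFP/YFP ratio read after 45 min at room temperature; pre-read flags interference.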
Rango dissoc inh: inhibitors of RanGTP-induced Rango-importin beta complex dissociation; O95149+P62826; Biochemical FRET Rango-importin beta, RanGTP-induced dissociation; Potency, µM (series often up to 46.1 µM), inactives show top-dose activity change, negative = inhibition; 0.071% of 340,000 active; active means falling FRET ratio curve, often poorly fitted, with flat reads before Ran was added; inconclusive means other falling curves, or compound fluorescence or quenching; inactive means flat or rising ratio curve;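 further: potency means the concentration at half of the fitted maximal effect; % of control where 0% means no effect; nearly all actives have a fitted effect of over 45% in size; -100% = wells without RanGTP and RCC1; the record marks most hits as doubtful in a second field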
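Quantitative HTS using a FRET biosensor: 0.1 uM Rango, 0.25 uM importin beta, 0.6 uM Ran, 2 mM GTP, 0.2 uM RCC1 final, PBS with DTT, Tween-20 and BSA. Post-read taken 45 min after Ran addition.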
GLA inh pH 4.5: alpha-galactosidase A (human) inhibition, pH 4.5 | purified enzyme, 4-MU-alpha-Gal fluorescence, pH 4.5 | activity change, negative = inhibition, % at 105 µM | 230,000 tested, under 10 active; inconclusive = small, poorly fitted or top-dose-only inhibition, or a rising curve; inactive = flat fitted curve, though single readings scatter; no compound was filed as active;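 further: 0% = full activity with enzyme and -100% = basal without enzyme; dose as in the result columns while the protocol names 77 µM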
Target sequence (P06280 whole entry, looked up): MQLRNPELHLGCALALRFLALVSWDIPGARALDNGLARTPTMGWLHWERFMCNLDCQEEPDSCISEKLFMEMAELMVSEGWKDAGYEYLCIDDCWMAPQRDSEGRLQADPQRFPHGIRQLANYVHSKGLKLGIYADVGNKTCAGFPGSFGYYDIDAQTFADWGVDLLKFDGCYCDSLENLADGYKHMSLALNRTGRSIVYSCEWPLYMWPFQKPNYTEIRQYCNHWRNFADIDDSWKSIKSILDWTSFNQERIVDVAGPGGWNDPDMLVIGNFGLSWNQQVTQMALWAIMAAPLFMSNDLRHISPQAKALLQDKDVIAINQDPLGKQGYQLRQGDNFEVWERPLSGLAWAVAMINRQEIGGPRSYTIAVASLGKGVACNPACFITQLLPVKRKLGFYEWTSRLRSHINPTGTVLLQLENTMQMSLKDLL
miR-21 reporter: miR-21 reporter, rising signal; HeLa miR-21 FLuc reporter, luciferase, 48 h; Potency, µM (series often up to 38.3 µM), for the others: at the top dose reporter change, positive = more light; 340,000 tested, under 10 active; AID 2288; active = well fitted rising curve with a large enough effect; inconclusive = small, poorly fitted or top-dose-only effect; inactive = no such curve, though single readings can be large or run the other way;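 further: % of control where 0% means no effect; miR-21 action dims this reporter so a rising signal means less miR-21 action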
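HeLa cells stably expressing CMV-driven firefly luciferase with a downstream miR-21 binding sequence, endogenously expressing miR-21, were treated with titrations (up to about 40uM final) for 48 hours at 37 degree Celsius. Luciferase luminescence was read after lysis.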
* hit, by the source's call; ? = inconclusive; / = no result given; & = joins results of further samples.

Order of results – GLA inh pH 4.5, Rango complex inh, Rango dissoc inh, miR-21 reporter
COc1cc(CNCc2cccnc2)ccc1OCC(=O)NC1CCCCC1
 : 8, -2.5%, -1%, 0%
CCOc1ncccc1C(=O)OCC(=O)NC1CCCCC1
 : /, -3.3%, 9%, /
CN(C)S(=O)(=O)c1ccc(N2CCCC2)c(C(=O)Nc2ccc(Br)cc2F)c1
 : /, -1.3%, 1%, /
COc1ccc(-c2nc(-n3c(C)c(C(C)=O)c(C(C)=O)c3C)sc2C)cc1OC
 : 3, 4.5%, -11%, -2%
O=C(COC(=O)C1CCCN1C(=O)c1cccs1)Nc1ccc2c(c1)OCO2 (configuration not stated)
 : -23, -1.7%, 1%, -6%
COc1cc(/C=C/C(=O)OCC(=O)Nc2c(C)n(C)n(-c3ccccc3)c2=O)ccc1O
 : /, ?, -20%, -3%
C#CCOCCOCCOCCNc1nc(N2CCN(C(=O)CCCCCCCCCCNC(=O)Cn3cc(C[C@@H](C)O)nn3)CC2)nc(N2CCN(C(=O)CCCCCCCCCCNC(=O)[C@H](CO)n3cc(CCCSC)nn3)CC2)n1
 : /, 1.4%, 0%, /
CCOC(=O)N1CCN(C/C(C)=C/c2ccccc2)CC1
 : 2, -2.6%, 8%, -26%
Cc1cc(Cl)ccc1OCC(=O)OCC(=O)NCCNC(=O)COC(=O)COc1ccc(Cl)cc1C
 : /, -2.6%, 1%, /
O=C(CSC1=NCCS1)Nc1ccccc1F
 : 0, -0.3%, 0%, -12%
O=C(N/N=C\c1ccc(Cl)s1)C1COc2ccccc2O1 (configuration not stated)
 : -10, 0.5%, -7%, 15%
CC(C)NC(=O)CSc1nnc(-c2ccc3ncccc3c2)n1C
 : -1, -4.9%, -6%, 10%
CC(C)N(Cc1nnc(-c2ccc(Cl)cc2)o1)C(=O)C1=COCCO1
 : /, -1.9%, 7%, /
O=C(c1ccc(CNS(=O)(=O)c2ccc(Br)cc2)cc1)N1CCCC1
 : 1, 0.7%, 12%, -1%
CC(=O)c1ccccc1NC(=O)Cn1c(=O)cnc2ccccc21
 : -3, -4.6%, 1%, -19%
CC1=NN(C(=O)CCc2ccccc2O)C(O)(C(F)(F)F)C1 (configuration not stated)
 : 2, -4.8%, 2%, -12%
O=C(CNC(=O)c1cccs1)NCC(=O)OCc1ccc(Cl)cc1
 : 10, ?, 10%, 1%
Cc1ccc(NC(=O)COC(=O)COc2ccc(Cl)cc2)c([N+](=O)[O-])c1
 : -1, 1.6%, 1%, -3%
N#Cc1cn(CC(=O)NCCc2c[nH]c3ccccc23)c2ccccc12
 : -5, 4.2%, -1%, 2%
N#Cc1ccc(C23CC4(C2)[C@H](CN(Cc2ccc(-c5ccccc5)cc2)[C@@H]4c2ccccc2)C3c2ccc(Cl)nc2)cc1 (some centres not stated)
 : -11&-11, ?, -5%, 1%
CCOc1ccc(-c2nnc(N)o2)cc1
 : 12, -0.7%, -1%, -23%
CC(OC(=O)/C=C/c1ccccc1)C(=O)Nc1ccc2c(c1)OCCO2 (configuration not stated)
 : /, 0.8%, 0%, /
COc1ccc(NC(=O)c2cn(CCC#N)nc2-c2cccs2)cc1
 : 0, -0.9%, -17%, -9%
CC(=O)Nc1ccc(S(=O)(=O)N(C)CC(=O)Nc2ccc(Br)cc2F)cc1
 : /, ?, -6%, /
Cc1ccc(C)c2c1c1ccccc1n2C
 : -7, -1.2%, 11%, -1%
CCOc1ccc(S(=O)(=O)N2CCN(C(=O)c3ccc(-n4cncn4)c([N+](=O)[O-])c3)CC2)cc1
 : /, -0.3%, -4%, /
CCN1CCN(C(=O)c2cc3c(=O)n(C)c4ccccc4c3n2C)CC1
 : -6, 0.7%, -12%, -1%
O=C(COC(=O)C12CC3CC(CC(O)(C3)C1)C2)Nc1ccc(OC(F)F)cc1
 : /, 1.1%, 3%, /
CCC(CC)NC(=O)CCCSc1nc2ccccc2[nH]1
 : 2, -0.5%, -6%, -8%
CCN(CC)S(=O)(=O)c1ccc(S(=O)(=O)N(CC(=O)Nc2ccccc2)Cc2ccco2)cc1
 : -12, 2.4%, -14%, -2%
CCN(CC)S(=O)(=O)c1ccc(OC)c(NC(=O)/C=C/c2ccco2)c1
 : -9, -4.5%, -7%, 6%
CC(NC(=O)COC(=O)c1ccc2c(c1)S(=O)(=O)N=C1CCCCCN12)C12CC3CC(CC(C3)C1)C2 (configuration not stated)
 : 8, 0.1%, 4%, -27%
Cc1nn(C)c(Oc2cccc(C(F)(F)F)c2)c1C#N
 : 4, 1.3%, 0%, 2%
CCN(CC)S(=O)(=O)c1ccc(OC)c(NC(=O)c2ccc(-n3cncn3)c([N+](=O)[O-])c2)c1
 : /, -1.3%, 10%, /
Clc1ccc(CN2C3=NCCCN3c3ccccc32)cc1Cl
 : 2, -0.3%, 23%, 13%
CCC1(CC)C(=O)NC(=O)NC1=Nc1ccccc1
 : 14, 0.6%, -9%, -1%
CCCCc1c(C)nn(-c2nnc3c4ccccc4n(C)c3n2)c1C
 : 4, -5.0%, -17%, -21%
Cc1ccc(-c2nnc(SCC(=O)N/N=C/c3ccc(C)s3)n2-c2ccc(C)cc2)cc1
 : -1, 1.9%, 13%, -11%
OC(CNCC1CCCO1)Cn1c2ccc(Cl)cc2c2cc(Cl)ccc21 (configuration not stated)
 : -3, 2.2%, 2%, ?
O=c1[nH][nH]c(-c2ccccc2O)c1C(C[N+](=O)[O-])c1ccccc1 (configuration not stated)
 : 0, -1.9%, 38%, -11%
Cc1cc(C)nc(Nc2n[nH]c(-c3ccc(N)cc3)n2)n1
 : 2, 3.8%, -5%, -28%
CCOCCCNC(=O)c1c(N)n(-c2ccc3c(c2)OCO3)c2nc3ccccc3nc12
 : 19, ?, ?, -11%
Cc1cc(C)c(NC(=O)c2ccc[n+](Cc3ccc([N+](=O)[O-])cc3)c2)c(C)c1
 : 5, 2.6%, -11%, -8%
CCCN1C(=O)C2(SC(NC(C)=O)=NN2C(C)=O)c2cc(C)ccc21 (configuration not stated)
 : 1, -0.3%, 1%, -5%
O=C(CSc1nncn1-c1ccccc1)c1c[nH]c2ccccc12
 : -19, ?, 3%, -2%
CNS(=O)(=O)c1cccc(C(=O)OCC(=O)/C=C2/N(C)c3ccccc3C2(C)C)c1
 : 0, 0.3%, -13%, 8%
COc1ccccc1N=NC1=C(O)CC(C)(C)CC1=O
 : 0, 4.9%, -1%, -13%
Cc1ccc(C(=O)NC2CCN(C(=O)Nc3ccccc3Cl)CC2)cc1
 : /, -2.4%, 1%, -1%
CC1(C)CC(=O)C(C(C2=C(O)CC(C)(C)CC2=O)c2ccco2)C(=O)C1 (configuration not stated)
 : 11, 2.8%, -10%, -2%
CCn1ncc(S(=O)(=O)NCc2ccco2)c1C
 : /, 7.8%, 0%, -5%
COC(=O)CSc1nc2c(c(=O)[nH]c(=O)n2C)n1CCC(C)C
 : 2, -1.6%, -1%, -6%
CSc1ccc(Cl)c(C(=O)N2CCOc3ccccc32)c1
 : /, -2.8%, -6%, 10%
COc1cc(CC(C#N)(CO)c2nc3ccccc3[nH]2)ccc1OC(F)F (configuration not stated)
 : -24, ?, ?, 0%
O=C(O)c1cc(-c2ccco2)nn1-c1ccc(Cl)cc1
 : 4, ?, -12%, -3%
Cc1cc(C(C)(C)C)cc(S(=O)(=O)NCC(=O)O)c1C
 : -5, -7.0%, 19%, -1%
CN1CCN(C(CNC(=O)C(=O)Nc2ccc3c(c2)OCCO3)c2ccc(F)cc2)CC1 (configuration not stated)
 : /, -2.4%, -6%, /
O=c1c2ccccc2sc2nc(CCl)nn12
 : /, -2.7%, -2%, /
C[C@H](CO)N1C[C@H](C)[C@@H](CN(C)C(=O)NC2CCCCC2)Oc2c(NC(=O)Nc3ccc4c(c3)OCO4)cccc2C1=O
 : /, 0.0%, -4%, /
CC(C(=O)Nc1nc(-c2ccc(F)cc2)cs1)N1C(=O)C2CC=CCC2C1=O (configuration not stated)
 : /, ?, 20%, /
CCOc1ccc(NC(=O)C2CC(=O)N(c3ccccc3F)C2)cc1 (configuration not stated)
 : /, 2.1%, -2%, -1%

Some of these compounds in order of their number in Rango dissoc inh, falling.
compound,Rango dissoc inh
O=c1[nH][nH]c(-c2ccccc2O)c1C(C[N+](=O)[O-])c1ccccc1 (configuration not stated),38%
COC(=O)CSc1nc2c(c(=O)[nH]c(=O)n2C)n1CCC(C)C,-1%
Cc1cc(C)c(NC(=O)c2ccc[n+](Cc3ccc([N+](=O)[O-])cc3)c2)c(C)c1,-11%

3 structures already listed, arranged by count of non-hydrogen atoms, highest first:
Order of results – GLA inh pH 4.5, Rango complex inh, Rango dissoc inh, miR-21 reporter
Cc1ccc(-c2nnc(SCC(=O)N/N=C/c3ccc(C)s3)n2-c2ccc(C)cc2)cc1
 : -1, 1.9%, 13%, -11%
CCOc1ccc(NC(=O)C2CC(=O)N(c3ccccc3F)C2)cc1 (configuration not stated)
 : /, 2.1%, -2%, -1%
COc1ccccc1N=NC1=C(O)CC(C)(C)CC1=O
 : 0, 4.9%, -1%, -13%

The results go on:
Order of results – GLA inh pH 4.5, Rango complex inh, Rango dissoc inh, miR-21 reporter
CCn1c2ccccc2c2nnc(SCc3ccccc3)nc21
 : 5, 2.2%, -19%, -31%
CCCCn1nc2cc(C(=O)NCc3cc(C(F)(F)F)cc(C(F)(F)F)c3)ccc2c1OC
 : 1, -6.4%, -17%, -6%
O=C(Nc1ccc(C(=O)N2CCCC2)cc1)C1CCCCC1
 : /, 0.1%, 1%, /
Cc1nn(S(=O)(=O)c2ccccc2)c(C)c1S(=O)(=O)N1CCC(C)CC1
 : /, -1.4%, -2%, 1%&1%
O=C1CCCCCN1CP(=O)(O)CN1CCCCCC1=O
 : -2, -0.3%, 3%, 0%
COc1cccc(N(CC(=O)NC2CCCC2)C(=O)Cn2nnc(-c3ccc(C)cc3)n2)c1
 : -6, 4.3%, 8%, -2%
Cc1ccc(C(=O)OCC(=O)Nc2cc(S(C)(=O)=O)ccc2Cl)cc1S(=O)(=O)N1CCCCC1
 : /, -0.5%, -1%, 2%
Nc1nnc(CCC2CCCCC2)s1
 : 4, -0.6%, 2%, -29%
CCC(C(=O)NCCN1CCN(C)CC1)n1c(C)c2cnn(-c3ccccc3)c(=O)c2c1C (configuration not stated)
 : 1, -1.2%, ?, -8%
COc1cc(C(=O)NC(C)c2ccc(-n3ccnc3)cc2)cc(OC)c1C (configuration not stated)
 : /, 3.2%, 15%, -4%
CC1CCN(S(=O)(=O)c2ccc(S(=O)(=O)NCC3COCCO3)cc2)CC1 (configuration not stated)
 : 3, -2.0%, -14%, -3%
O=C(Cc1cccc(NC(=O)C2CCCN(C(=O)C3CCCC3)C2)c1)Nc1ccc(C(=O)N2CCOCC2)cc1 (configuration not stated)
 : /, -2.5%, 14%, /
CCS(=O)(=O)c1ccc2oc(SCC(=O)NCCc3ccccc3)nc2c1
 : -2, -0.2%, 1%, 5%
COc1ccc(S(=O)CC(=O)Nc2ccc(Cl)cc2Cl)cc1 (configuration not stated)
 : 5, 0.2%, 1%, 0%
CC(CCN1C(Nc2ccccc2)=NC[C@@H]1C)c1ccccc1 (some centres not stated)
 : /, 3.8%, -5%, 6%
COc1ccc(-n2c(Cc3cccn3C)nnc2SCC(=O)Nc2cccc(C)c2C)cc1
 : -13, 0.1%, 4%, -9%
CCOC(=O)N1CCN(C(=O)COc2ccccc2OC)CC1
 : 0, 4.9%, -6%, -2%
COc1ccc(Cn2cc(CN3CCS(=O)(=O)N(Cc4ccc(-c5cccc(Cl)c5)cc4)C(C)C3=O)nn2)cc1 (configuration not stated)
 : /, 0.7%, 16%, /
CCOc1ccc(NC(=O)C2CC=CCC2C(=O)O)cc1 (configuration not stated)
 : -13, 0.7%, -5%, -2%
O=c1c2cc(N3CCOCC3)ccc2[nH]c(=S)n1CCCN1CCCC1
 : -2, ?, ?, -7%
CCOC(=O)c1[nH]c(CSc2nnc(-c3ccc(OC)cc3)o2)c(C(=O)OCC)c1C
 : -8, 1.6%, -4%, -10%
COc1cccc(COc2cc3ccccc3nc2C)c1
 : -23, 0.0%, 0%, 0%

Compound profiles (already shown). Order of values: GLA inh pH 4.5	Rango complex inh	Rango dissoc inh	miR-21 reporter
CC1CCN(S(=O)(=O)c2ccc(S(=O)(=O)NCC3COCCO3)cc2)CC1 (configuration not stated) in the list: 3	-2.0%	-14%	-3%
Nc1nnc(CCC2CCCCC2)s1 in the list: 4	-0.6%	2%	-29%

An excerpt; count on the stated rates, not on these rows.
